MLL AF4-AF9 inh: inhibitors of AF4 peptide binding to AF9, primary screen, biochemical, AlphaScreen, biotin-AF4 peptide, FLAG-AF9, single point; inhibition, % at 10 µM; Protein AF-9 (Homo sapiens), P42568; AID 651704, 2012; hit rate 0.47% among 350,000;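 active = every replicate reaching a set inhibition limit, whatever the replicate mean, cut at about 25% in these data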;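 also: 0% = plate neutral control median and 100% = total signal loss; the record names both 10 and 1 µM as test concentration; the first replicate is given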
Target sequence (P42568 whole entry, looked up): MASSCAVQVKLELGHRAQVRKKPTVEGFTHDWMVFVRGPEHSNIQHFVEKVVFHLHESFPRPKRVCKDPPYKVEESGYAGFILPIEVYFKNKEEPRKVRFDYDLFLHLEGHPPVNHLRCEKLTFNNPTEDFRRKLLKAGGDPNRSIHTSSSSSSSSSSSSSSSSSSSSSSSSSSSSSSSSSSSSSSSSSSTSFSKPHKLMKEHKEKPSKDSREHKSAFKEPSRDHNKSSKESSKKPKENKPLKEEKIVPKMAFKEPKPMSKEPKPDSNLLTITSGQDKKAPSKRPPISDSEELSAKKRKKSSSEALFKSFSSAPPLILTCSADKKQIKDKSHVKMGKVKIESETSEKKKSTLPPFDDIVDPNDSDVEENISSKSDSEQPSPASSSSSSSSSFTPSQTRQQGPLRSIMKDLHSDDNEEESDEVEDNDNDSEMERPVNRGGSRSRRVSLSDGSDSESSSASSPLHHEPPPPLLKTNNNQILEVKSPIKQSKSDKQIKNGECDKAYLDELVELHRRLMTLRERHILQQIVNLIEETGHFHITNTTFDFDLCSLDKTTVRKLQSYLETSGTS
rRNA inh HTS: reduced GFP signal of wild-type E. coli, primary screen, bacterial rRNA inhibitor project, GFP/RFP fluorescence, OD600, single point; E. coli WT GFP vs humanized-ribosome RFP mutants, 24 h; hits give low values; DMSO median 0, no signal -100; GFP signal change (wild-type ribosome), % (test concentration not listed); hit rate 1.6% among 350,000; AID 720706, 2013;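 active = significant combined selectivity score with lowered wild-type GFP, culture density cut under 30%, mutant RFP and density less affected; inactive = any of these conditions unmet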; also: one replicate is shown; some compounds called inactive have numbers as strong as hits
rRNA inh HTS OD600: second read-out of rRNA inh HTS, no call of its own (marks repeat the call); OD600 change, %; measured here: OD600 growth;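 optical density of the mix in the first replicate; 0 = DMSO median and -100 = no signal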
rRNA inh HTS RFP: also measured in rRNA inh HTS; calls as there; RFP signal change, %; measured here: RFP humanized mutant strains;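 first replicate; 0 = DMSO median and -100 = no signal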
Starred values were filed as active, the others as inactive. Not all compounds are listed; the hit share may differ from the screen's.

(1) C[C@@H]1CN([C@H](C)CO)C(=O)CCCn2nncc2CO[C@H]1CN(C)C(=O)Nc1ccccc1
(2) C[C@H]1CN([C@@H](C)CO)S(=O)(=O)c2ccc(-c3cncnc3)cc2O[C@@H]1CN(C)Cc1ccccc1
(3) C[C@H]1CN([C@@H](C)CO)C(=O)Cc2cc(NC(=O)Cc3ccccc3)ccc2O[C@H]1CN(C)CC1CC1
(4) CC(C)NC(=O)N(C)C[C@@H]1Oc2ccc(NC(=O)CCC(F)(F)F)cc2C(=O)N([C@@H](C)CO)C[C@H]1C
(5) Cn1cnc(S(=O)(=O)N[C@@H]2C=C[C@@H](CC(=O)N3CCN(c4ccccc4)CC3)O[C@H]2CO)c1
(6) O=C(Nc1ccc(Cl)c(Cl)c1)N[C@@H]1CC[C@H](CCn2cc(C3CCCCC3)nn2)O[C@@H]1CO

Assay by compound	1	2	3	4	5	6
MLL AF4-AF9 inh	-1.5	4.8	-1.0	-2.2	1.0	2.8
rRNA inh HTS	0	-12	1	5	1	-48
rRNA inh HTS OD600	-1	-7	4	4	1	-73
rRNA inh HTS RFP	-0.9	-3.6	-2.1	-0.4	-0.8	-3.7

(7) CO[C@@H]1CN(C)C(=O)c2ccc(NC(=O)C3CCOCC3)cc2OC[C@@H](C)N(Cc2cccnc2)C[C@@H]1C
(8) C[C@@H]1CN([C@@H](C)CO)C(=O)c2cc(NC(=O)CCC(F)(F)F)ccc2O[C@@H](C)CCCCO[C@H]1CN(C)Cc1ccc(Cl)c(Cl)c1
(9) COCC(=O)N1CC(=O)N2[C@H](C1)[C@H](c1ccc(C#CC3CC3)cc1)[C@@H]2CO
(10) CN1C(=O)c2cc(NC(=O)Nc3ccccc3F)ccc2OC[C@@H]2O[C@@H](CC(=O)NCc3ccc(-c4ccccc4)cc3)CC[C@H]21
(11) C[C@H]1CCCCO[C@@H](CN(C)C(=O)Nc2ccc(C(F)(F)F)cc2)[C@@H](C)CN([C@@H](C)CO)C(=O)c2cc(N(C)C)ccc2O1
(12) CN(C)Cc1csc(NC(=O)Nc2ccccc2C(C)(C)C)n1

Assay by compound	7	8	9	10	11	12
MLL AF4-AF9 inh	-1.5	-6.8	-2.4	-1.8	3.8	2.5
rRNA inh HTS	-1	0	3	1	-2	18
rRNA inh HTS OD600	-3	-3	1	9	-1	14
rRNA inh HTS RFP	-1.7	1.2	-3.8	2.2	0.3	1.8

(13) C[C@@H]1CN([C@H](C)CO)S(=O)(=O)c2ccc(C#Cc3ccc(F)cc3)cc2O[C@@H]1CN(C)C(=O)CN(C)C
(14) CCNC(=O)[C@H]1[C@H](CO)[C@H]2Cn3c(ccc(-c4ccc(OC)cc4)c3=O)[C@H]2N1Cc1ccccc1
(15) Cc1cccc(C)c1NC(=O)C(c1cccc(F)c1)N1CCN(C)CC1 (configuration not stated)
(16) C[C@H]1CCCCO[C@H](CN(C)S(=O)(=O)c2cccs2)[C@@H](C)CN([C@@H](C)CO)C(=O)c2cc(NS(C)(=O)=O)ccc2O1
(17) C[C@H](CO)N1C[C@H](C)[C@@H](CN(C)Cc2cccc(C(=O)O)c2)Oc2cc(C3=CCCCC3)ccc2S1(=O)=O
(18) CO[C@@H]1CN(C)C(=O)c2cc(NC(=O)Nc3ccccc3)ccc2OC[C@H](C)N(C(C)=O)C[C@@H]1C

Assay by compound	13	14	15	16	17	18
MLL AF4-AF9 inh	15	-10	-2.7	-3.6	1.2	3.5
rRNA inh HTS	-4	-3	28	-6	-13	-4
rRNA inh HTS OD600	-4	-4	17	-8	-18	-4
rRNA inh HTS RFP	7.5	-0.7	-0.3	-0.6	1.8	2.3

(19) O=C(O)C[C@@H]1CC[C@H](NC(=O)Nc2ccccc2)[C@@H](CO)O1
(20) CC(C)NC(=O)c1cc(C2CCCCN2C(=O)c2ccc(C#N)cc2)on1 (configuration not stated)
(21) N#Cc1[nH]nc2nc[nH]c(=O)c12
(22) O=C(NCc1ccc(F)cc1)[C@H]1[C@H](CO)[C@H]2Cn3c(cccc3=O)[C@@H]1N2C(=O)c1cnccn1
(23) CO[C@H]1CN(C)C(=O)c2ccc(NS(=O)(=O)c3cccc(Cl)c3)cc2OC[C@H](C)NC[C@H]1C
(24) COCC(=O)N1CC(=O)N2[C@H](CO)[C@@H](c3ccc(C#CCc4ccccc4)cc3)[C@H]2C1

Assay by compound	19	20	21	22	23	24
MLL AF4-AF9 inh	-2.8	0.5	0.8	-1.1	-0.1	0.4
rRNA inh HTS	2	21	13	1	2	0
rRNA inh HTS OD600	7	25	12	1	3	2
rRNA inh HTS RFP	-0.6	2.6	-1.4	-0.9	-0.2	-1.5

(25) CC1(C(=O)Nc2ccc(F)cc2F)CCN1C(=O)CCC1CCCC1 (configuration not stated)
(26) CCCC#Cc1ccc([C@@H]2[C@H](CO)N3C(=O)CN(C(=O)c4ccccn4)C[C@@H]23)cc1
(27) COC(=O)C(Cc1ccc(O)cc1)NC(=O)Cn1cc(C)c(=O)[nH]c1=O (configuration not stated)
(28) Cc1noc(C)c1NC(=O)N[C@H]1CC[C@H](CC(=O)Nc2ccccc2)O[C@@H]1CO
(29) C[C@@H]1CN([C@H](C)CO)C(=O)c2cc(N(C)C)ccc2O[C@@H](C)CCCCO[C@@H]1CN(C)S(C)(=O)=O
(30) C[C@@H]1CCCCO[C@@H](CN(C)Cc2ccc(Cl)c(Cl)c2)[C@H](C)CN([C@@H](C)CO)C(=O)c2cc(NS(=O)(=O)c3cn(C)cn3)ccc2O1

Assay by compound	25	26	27	28	29	30
MLL AF4-AF9 inh	-4.9	0.9	-3.8	-1.7	0.7	7.4
rRNA inh HTS	-7	-1	5	2	3	2
rRNA inh HTS OD600	-14	-8	20	6	10	-12
rRNA inh HTS RFP	-6.4	-1.8	1.3	0.1	2.9	11

One compound at a time, from the list above. Values in the order: MLL AF4-AF9 inh | rRNA inh HTS | rRNA inh HTS OD600 | rRNA inh HTS RFP
CO[C@@H]1CN(C)C(=O)c2cc(NC(=O)Nc3ccccc3)ccc2OC[C@H](C)N(C(C)=O)C[C@@H]1C across the screens: 3.5 | -4 | -4 | 2.3
CO[C@H]1CN(C)C(=O)c2ccc(NS(=O)(=O)c3cccc(Cl)c3)cc2OC[C@H](C)NC[C@H]1C across the screens: -0.1 | 2 | 3 | -0.2
Cn1cnc(S(=O)(=O)N[C@@H]2C=C[C@@H](CC(=O)N3CCN(c4ccccc4)CC3)O[C@H]2CO)c1 across the screens: 1.0 | 1 | 1 | -0.8

Further results follow:
(31) C[C@H](CO)N1C[C@H](C)[C@H](CN(C)Cc2cccnc2)Oc2cc(C#CCN(C)C)ccc2S1(=O)=O
(32) C[C@H]1CN([C@@H](C)CO)C(=O)c2cc(NC(=O)Nc3ccc(C(F)(F)F)cc3)ccc2O[C@H]1CN(C)C
(33) O=C(Cc1ccccc1)N1CC[C@@H]2[C@@H](CO)Nc3ccc(-c4ccccc4F)cc3[C@@H]21
(34) CN(CCc1ccccc1)C(C(=O)Nc1ccc2c(c1)OCCO2)c1ccnc2ccccc12 (configuration not stated)
(35) CC(C)NC(=O)N1CC2(C1)[C@H](c1ccccc1)[C@H](CO)N2Cc1cccnc1
(36) O=C(O)C[C@H]1C[C@@H]2c3cc(NS(=O)(=O)c4ccccc4)ccc3O[C@@H]2[C@H](CO)O1

Assay by compound	31	32	33	34	35	36
MLL AF4-AF9 inh	0.7	3.3	1.1	-0.2	-5.0	0.1
rRNA inh HTS	2	3	-56	3	-1	5
rRNA inh HTS OD600	8	0	-73	3	-13	8
rRNA inh HTS RFP	-1.5	0.0	-12	-2.0	-2.7	-3.2

(37) C/C=C/c1cnc2c(c1)C(=O)N([C@H](C)CO)C[C@@H](C)[C@@H](CN(C)C(=O)CN1CCOCC1)O2
(38) CN(C)Cc1cn(CC[C@@H]2CC[C@H](NC(=O)Cc3cccnc3)[C@@H](CO)O2)nn1
(39) COCCNC(=O)[C@@H]1[C@@H](CO)[C@@H]2Cn3c(ccc(-c4ccc(F)cc4)c3=O)[C@H]1N2C(=O)NC(C)C
(40) C[C@H]1CN([C@@H](C)CO)C(=O)c2cccc(NC(=O)c3nc4ccccc4s3)c2O[C@H]1CN(C)S(=O)(=O)c1cccs1
(41) C[C@H]1CN([C@@H](C)CO)C(=O)Cc2cc(NC(=O)CCC(F)(F)F)ccc2O[C@H]1CN(C)C(=O)Nc1ccccc1
(42) C[C@H]1CN([C@@H](C)CO)C(=O)Cc2cc(NC(=O)c3ccncc3)ccc2O[C@@H]1CN(C)S(=O)(=O)c1ccc(F)cc1

Assay by compound	37	38	39	40	41	42
MLL AF4-AF9 inh	-1.4	-3.3	0.6	5.9	-3.6	-0.8
rRNA inh HTS	8	1	0	-7	3	-1
rRNA inh HTS OD600	2	7	14	-8	0	6
rRNA inh HTS RFP	-0.3	1.0	-1.3	2.3	-3.1	-1.1

(43) CCS(=O)(=O)N[C@H]1C=C[C@H](CC(=O)NCc2ccc(F)cc2)O[C@H]1CO
(44) Cc1ccc(-c2cnc3c(c2)C(=O)N([C@@H](C)CO)C[C@@H](C)[C@H](CN(C)C(=O)c2ccc(F)cc2)O3)cc1
(45) CCCC#Cc1ccc2c(c1)O[C@@H](CN(C)C(=O)COC)[C@@H](C)CN([C@H](C)CO)S2(=O)=O
(46) C[C@H]1CN([C@@H](C)CO)C(=O)c2cccc(NC(=O)C3CCOCC3)c2O[C@H]1CN(C)Cc1ccc(C(F)(F)F)cc1
(47) CCC(=O)Nc1ccc2c(c1)C(=O)N(C)C[C@@H](OC)[C@H](C)CN(Cc1cccnc1)[C@H](C)CO2
(48) CCC(=O)N1CC2(C1)[C@@H](c1ccc(-c3ccc(C)cc3)cc1)[C@@H](CO)N2S(C)(=O)=O

Assay by compound	43	44	45	46	47	48
MLL AF4-AF9 inh	-0.7	-1.0	1.5	-1.0	0.8	0.1
rRNA inh HTS	4	-2	-3	1	1	2
rRNA inh HTS OD600	4	-13	-4	-6	3	-2
rRNA inh HTS RFP	-0.5	-0.8	0.3	-0.6	1.4	2.1

(49) C[C@@H]1CN([C@@H](C)CO)S(=O)(=O)c2ccc(-c3ccncc3)cc2O[C@H]1CN(C)C
(50) CCC(=O)N(C)C[C@@H]1Oc2cc(C#CCOC)ccc2S(=O)(=O)N([C@H](C)CO)C[C@@H]1C
(51) Cc1cc(OC(=O)NCCc2ccc(F)cc2)ccc1F
(52) Cc1ccccc1S(=O)(=O)N1C[C@H](O)COC[C@@H]2O[C@@H](CC(=O)N3CCN(C)CC3)CC[C@H]21
(53) Cc1noc(C)c1S(=O)(=O)Nc1ccc2c(c1)C(=O)N([C@H](C)CO)C[C@H](C)[C@@H](CN(C)C(=O)Nc1cccc3ccccc13)O2
(54) COc1ccc(NC(=O)Nc2ccc3c(c2)C(=O)N([C@H](C)CO)C[C@H](C)[C@H](CN(C)Cc2ccc(C(F)(F)F)cc2)OCCCC[C@@H](C)O3)cc1

Assay by compound	49	50	51	52	53	54
MLL AF4-AF9 inh	-0.8	0.2	-5.3	-2.0	0.5	0.0
rRNA inh HTS	2	0	-6	1	4	-1
rRNA inh HTS OD600	-6	-2	-2	0	14	-5
rRNA inh HTS RFP	-3.4	-3.3	6.1	-5.0	8.9	3.4

(55) O=C(C[C@@H]1C=C[C@@H](NC(=O)Nc2ccc(C(F)(F)F)cc2)[C@H](CO)O1)NCc1ccccn1
(56) COc1ccc(S(=O)(=O)Nc2ccc3c(c2)CC(=O)N([C@H](C)CO)C[C@@H](C)[C@H](CN(C)Cc2ccc(C(=O)O)cc2)O3)cc1
(57) C/C=C/c1ccc([C@H]2[C@@H](CO)N(S(C)(=O)=O)[C@H]2CN(CCC)C(C)=O)cc1
(58) COc1cccc(-c2cnc3c(c2)C(=O)N([C@@H](C)CO)C[C@H](C)[C@@H](CN(C)CC2CCOCC2)O3)c1
(59) C[C@@H]1CCCCO[C@H](CN(C)Cc2ccccc2)[C@@H](C)CN([C@@H](C)CO)C(=O)c2cc(NC(=O)Nc3ccccc3)ccc2O1
(60) CCCNC(=O)C[C@@H]1CC[C@@H]2[C@H](COC[C@@H](O)CN2Cc2ccccc2F)O1

Assay by compound	55	56	57	58	59	60
MLL AF4-AF9 inh	-1.1	-4.9	-4.2	-3.9	14	-1.6
rRNA inh HTS	-2	6	1	1	-1	3
rRNA inh HTS OD600	2	4	-2	8	0	1
rRNA inh HTS RFP	0.7	2.4	3.1	0.5	-1.6	0.5

(61) C[C@@H]1CN([C@@H](C)CO)S(=O)(=O)c2ccc(C#Cc3ccccc3)cc2O[C@H]1CN(C)C(=O)Nc1ccc2c(c1)OCO2
(62) C[C@H](CO)N1C[C@H](C)[C@H](CN(C)S(=O)(=O)c2cn(C)cn2)Oc2ccc(NC(=O)CCCCCC(=O)Nc3ccccc3N)cc2C1=O
(63) CCNC(=O)Nc1ccc2c(c1)C(=O)N(C)[C@@H]1CC[C@H](CC(=O)N[C@H](C)c3ccccc3)O[C@H]1CO2
(64) COc1cccc(-c2cnc(C(O)c3cccc(OC)c3)[nH]2)c1 (configuration not stated)
(65) C[C@@H]1CN([C@@H](C)CO)C(=O)c2cccc(NS(=O)(=O)c3cccs3)c2O[C@H]1CN(C)C(=O)Nc1ccc(C(F)(F)F)cc1
(66) COc1ccc(CN(C)C[C@H]2Oc3ccc(NC(=O)NC(C)C)cc3CC(=O)N([C@@H](C)CO)C[C@@H]2C)cc1

Assay by compound	61	62	63	64	65	66
MLL AF4-AF9 inh	2.1	-2.5	-4.6	1.4	-1.4	-2.3
rRNA inh HTS	0	1	1	1	-12	1
rRNA inh HTS OD600	-3	12	-2	-8	-11	2
rRNA inh HTS RFP	-2.0	-1.3	-1.3	28	-2.4	-1.4

Screening data deposited in PubChem by Broad Institute.
